gsp antagonist: antagonizes gsp, the McCune-Albright syndrome mutation | gsp-mutant cells, cAMP HTRF, 30 min; control for the full effect not named in the record | Potency, µM (highest dose often 76.9 µM), for the others: at the top dose activity change, negative = inhibition, actives largely listed as inhibitors | actives 0.4% (n = 340,000) | AID 624288; active = falling curve of any shape with a large fitted effect; inconclusive = falling curve, mostly with a smaller effect; inactive = flat or rising curve; cell line not stated here;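 also: intracellular cAMP measured with PDE inhibitor Ro 20-1724 present during compound exposure; potency is read from the fitted curve at half-maximal effect; % is scaled to controls: 0 for no effect and ±100 for the full control effect; nearly all actives have a fitted effect of over 65% in size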
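HTRF cAMP measurement after 30 min RT detection following 30 min, 37C compound treatment alongside […] (added as 300 uM solution) in G418-selected cells seeded at 2000/well and grown 16–24 h.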
Sfp inh: blocks B. subtilis Sfp PPTase activity; actives 3.5% (n = 310,000); Potency, µM, for the others: max response, negative = inhibition, hits mostly inhibitors; AID 1490; Biochemical Sfp PPTase activity, qHTS; active = well fitted inhibition curve with a large enough effect; inconclusive = small, poorly fitted or top-dose-only effect, or another doubt; inactive = no such curve, though single readings can be large or run the other way;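 also: the enzyme is Sfp with the accession as filed and its product quenches rhodamine fluorescence; potency is read from the fitted curve at half-maximal effect; 0% = enzyme reaction without inhibitor and -100% = no enzyme wells; top concentration of the series not given in the record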
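With Hepes-Na pH 7.6 buffer containing 10 mM MgCl2, Sfp (15 nM) modified BHQ-2-YbbR (12.5 uM) using rhodamine-CoA (5 uM). Two reads 30 minutes apart at 525/598 nm yielded each well's rate.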
Menin-MLL FL inh: menin-MLL binding inhibition, fluorescein peptide | 290,000 tested, under 10 active | FP activity change, % at 61.4 µM | Fluorescence polarization, fluorescein-MLL peptide displacement from menin; inconclusive = falling polarisation curve, or a change in total fluorescence; inactive = total fluorescence flat and polarisation flat or rising; no compound was filed as active; the % refers to the polarisation; negative = inhibition;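 also: % of control where 0% means no effect; inhibitors lower the polarisation; unlabelled MLL peptide was the positive control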
ClpP mod: qHTS Assay for Activators of ClpP; purified B. subtilis ClpP, FRET peptide cleavage, 20 min; ATP-dependent Clp protease proteolytic subunit (Bacillus subtilis (strain 168)), P80244; AID 651965, 2013; Potency, µM (top dose mostly 57.5 µM), for inactives: at the top dose activity change, negative = active; actives 1.9% (n = 340,000); active = well fitted falling curve with a large enough effect; inconclusive = small, poorly fitted or top-dose-only effect; inactive = no such curve, though single readings can be large or run the other way; also: potency is read from the fitted curve at half-maximal effect; the source files actives as falling curves though it sought activators and does not explain the sign; nearly all actives have a fitted effect of over 65% in size; many hits overshoot -100%
Target sequence (P80244 whole entry, looked up): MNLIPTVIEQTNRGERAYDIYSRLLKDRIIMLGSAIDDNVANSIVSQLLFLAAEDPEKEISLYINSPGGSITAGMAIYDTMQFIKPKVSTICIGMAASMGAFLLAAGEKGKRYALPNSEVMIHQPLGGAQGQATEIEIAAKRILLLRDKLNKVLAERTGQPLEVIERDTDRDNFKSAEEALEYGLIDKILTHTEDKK
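FRET quenching reversal measured ClpP activation: 10 microg/mL B. subtilis ClpP at pH 8 with the FRET-FV decapeptide, read at 430 nm after 320 nm excitation. The 20-min minus 0-min signal was scaled between DMSO/no-enzyme wells and ADEP (5.8 microM final).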
TRPV1 potentiator: human TRPV1 potentiation. actives 0.02% (n = 320,000). potentiation, % at 8.33 µM. TRPV1-expressing cells, Fluo-8 calcium influx, capsaicin EC20 potentiation; host cell line not named in the record; control for the full effect not named in the record; active means potentiation above 80%; inconclusive means 30% to 80%; inactive means below 30%; also: 0% is about no effect
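TRPV1-expressing cells were cultured overnight at 35.5C and loaded with Fluo-8 calcium dye for 40 to 90 min at room temperature. After a 10 s baseline, compound was added and calcium influx was read kinetically for 3 min (ex 480/em 520 nm).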
gsp ag: gsp mutant agonism | actives 0.13% (n = 340,000) | Potency, µM (top dose mostly 76.9 µM), without a hit: top-dose activation (cAMP increase), hits mostly activators | gsp mutant cells, cAMP HTRF, 30 min; control for the full effect not named in the record; active = well fitted activation curve with a large enough effect; inconclusive = small, poorly fitted or top-dose-only effect, or another doubt; inactive = no such curve, though single readings can be large or run the other way; cell line not stated here;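 also: phosphodiesterase inhibitor Ro 20-1724 added with compounds to block cAMP breakdown; potency is read from the fitted curve at half-maximal effect; nearly all actives have a fitted effect of over 60% in size; about a fifth of the inactives were tested at one dose only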
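Cells stably selected in G418 were plated at 2000/well, grown 16-24 hr, then given compounds in DMSO with the PDE inhibitor […] (300 uM solution added) for 30 min at 37C; cAMP was read by HTRF.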
TRPML1 inh: human mucolipin-1 channel inhibition; Q9GZU1; actives 0.02% (n = 390,000); TRPML1-inducible cells, Ca2+ dye fluorescence, FDSS; stronger effect = lower value; inhibition of EC80 agonist-evoked calcium signal; activity change, negative = inhibition, % (concentration not given with the values); in the data active means activity change below about -50%; inconclusive means about -30% to -50%; inactive means above about -30%;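 also: stimulus is agonist 54-4 at its EC80 concentration; % is scaled to controls: 0 for no effect and ±100 for the full control effect; compound concentration not given in the record; the text of the record puts the active cut at -80%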
Target sequence (Q9GZU1 whole entry, looked up): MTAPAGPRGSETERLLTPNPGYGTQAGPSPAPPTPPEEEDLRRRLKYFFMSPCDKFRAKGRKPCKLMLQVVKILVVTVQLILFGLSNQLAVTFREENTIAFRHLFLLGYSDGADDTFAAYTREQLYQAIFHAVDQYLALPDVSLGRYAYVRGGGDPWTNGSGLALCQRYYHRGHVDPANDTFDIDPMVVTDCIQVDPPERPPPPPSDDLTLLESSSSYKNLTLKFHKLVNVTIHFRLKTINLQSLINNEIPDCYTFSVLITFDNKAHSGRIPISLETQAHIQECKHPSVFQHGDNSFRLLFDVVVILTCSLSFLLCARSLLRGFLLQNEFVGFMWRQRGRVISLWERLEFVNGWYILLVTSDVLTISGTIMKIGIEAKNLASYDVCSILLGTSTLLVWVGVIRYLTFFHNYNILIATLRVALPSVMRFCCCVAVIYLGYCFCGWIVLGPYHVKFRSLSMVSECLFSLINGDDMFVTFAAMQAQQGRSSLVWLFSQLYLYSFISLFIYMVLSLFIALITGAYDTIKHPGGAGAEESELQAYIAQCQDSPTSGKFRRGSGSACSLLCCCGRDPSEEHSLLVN
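Calcium fluorescence in TRPML1-DL cells induced overnight with Tet: a 110 s read after compound pin addition, then a 110 s antagonist read after challenge with 54-4 at 4 uM final (EC80).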
Numbers without * were called inactive; ? = inconclusive; . = not tested or not shown; & = joins results of further samples; [ ] = another dose, or the depositor's remark.

#1 O=C(COc1ccc(Cl)cc1Cl)NCC(=O)N/N=C/c1c[nH]c2ccccc12
#2 COc1cccc(/C=N/n2c(-c3cc(C)[nH]n3)n[nH]c2=S)c1OC
#3 O=C1CC(N2CCN(c3ccc(S(=O)(=O)N4CCCC4)cc3)CC2)C(=O)N1c1ccc(F)cc1 (centres undefined)
#4 COc1ccccc1N1C(C)=CC(=C(C#N)c2nc3ccccc3s2)C=C1C
#5 CC1CCN(Cc2c(C(=O)N/N=C/c3ccc(C(F)(F)F)cc3)nnn2-c2nonc2N)CC1
#6 CC(C)CCNC(=O)CNC(=S)N(CCCN1CCOCC1)Cc1cccs1
#7 CC1(c2cccc(Br)c2)NC(=O)N(CC(=O)c2ccc3c(c2)OCO3)C1=O (centres undefined)
#8 Cc1nn(C)c(C)c1/C=C/C(=O)O
#9 Cc1cccc(C)c1NC(=O)CN(C)C(=O)/C=C/c1cccs1
#10 CSCCC(NS(=O)(=O)c1cc(C(=O)O)ccc1Cl)C(=O)O (centres undefined)

screen / no.	1	2	3	4	5	6	7	8	9	10
gsp antagonist	10%	-12%	11%[15.4 µM]	-6%	-6%	4%	.	9%	-5%	7%
Sfp inh	0%	-29%	-5%	3%	10%	15%	.	6%	-9%	7%
Menin-MLL FL inh	-3.4	0.9	0.5	?	-1.0	-0.6	.	-4.8	8.6	1.8
ClpP mod	-14%	2.5%	-1.6%	-0.8%	.	-2.1%	-15%	-2.3%	-1.5%	-2.0%
TRPV1 potentiator	4	6	2	-2	25	4	.	1	16	1
gsp ag	1%	-8%	?	4%	-1%	2%[15.4 µM]	-21%	-171%[inhibitor]	-2%	-25%
TRPML1 inh	-4	25	-6	-12	12	-1	28	0	0	10

#11 Cc1c(Cl)cccc1NC(=S)Nc1ccc2[nH]c(=O)[nH]c2c1
#12 Cc1cccc(NC(=O)CC23CC4CC(C2)CC(n2nnc(C)n2)(C4)C3)c1
#13 COc1cc(OC)cc(C(=O)NNC(=O)c2ccc(-n3cncn3)c([N+](=O)[O-])c2)c1
#14 COc1ccc(N2CCN(CC(=O)NC(=O)NCc3ccco3)CC2)cc1
#15 COc1ccc(-c2c(-c3ccc(C#N)cc3)oc(=O)c3cc(OC)c(OC)cc23)cc1
#16 CCN(CC)C(=O)CSc1nnc(CCN)o1
#17 O=C(NCc1ccco1)C(C(=O)c1ccc(F)cc1)n1ccccc1=O (centres undefined)
#18 O=C1C2C3C=CC(C3)C2C(=O)N1c1ccncc1 (centres undefined)
#19 CCC(=O)Nc1cc2c(C)cc(=O)oc2cc1C
#20 COc1ccc(-n2nc(C(=O)NCC(=O)N3CCCCC3)c3ccccc3c2=O)cc1

screen / no.	11	12	13	14	15	16	17	18	19	20
gsp antagonist	1%	-8%	-2%	7%	?	6%	3%	-5%	8%	6%
Sfp inh	56µM*	-13%	.	13%	.	10%	-4%	15%	17%	14%
Menin-MLL FL inh	-0.4	-1.9	.	6.3	.	1.6	2.0	2.3	0.0	2.7
ClpP mod	2.2%	-21%	.	-2.3%	4.0%	-1.7%	-2.2%	?	32µM*	.
TRPV1 potentiator	-3	?	4	-11	.	2	-5	3	-10	8
gsp ag	?	-46%[inhibitor]	2%[15.4 µM]	11%	-1%	-33%[inhibitor]	30%	-29%	20%	1%[15.4 µM]
TRPML1 inh	.	28	12	-16	-6	4	9	5	10	16

#21 O=C(COC(=O)Cc1n[nH]c(=O)c2ccccc12)Nc1ncc(Cl)cc1Cl
#22 CCCCOC(=O)/C=C\C(=O)NC(N)=O
#23 COc1cc(C(=O)NCCC(=O)NCCN2CCOCC2)cc(OC)c1OC
#24 O=C(COC(=O)/C=C/c1ccc([N+](=O)[O-])cc1)NCC1CCCO1 (centres undefined)
#25 CC(=O)c1ccccc1C(=O)N1CCCC(C(=O)c2ccc(C(F)(F)F)cc2)C1 (centres undefined)
#26 Cc1cccc(C(=O)N=c2c(C#N)cc3c(=O)n4cccc(C)c4nc3n2Cc2ccco2)c1
#27 COCc1ccc(CN2CCC(n3nccc3NC(=O)CCCc3ccccc3)CC2)o1
#28 CC(OC(=O)CNC(=O)c1ccccc1)C(=O)Nc1ccc(S(=O)(=O)N2CCOCC2)cc1 (centres undefined)
#29 CCOC(=O)c1cnc2c(CC)cccc2c1NCCN1CCOCC1
#30 Cc1ccc(C(C(=O)NC2CCCCC2)N(C(=O)c2csnn2)C2CCCC2)o1 (centres undefined)

screen / no.	21	22	23	24	25	26	27	28	29	30
gsp antagonist	-7%	13%	-3%	-3%	-3%	?	-1%	-6%	-20%	-6%
Sfp inh	.	-4%	16%	2%	7%	28µM*	13%	.	11%	5%
Menin-MLL FL inh	.	0.6	1.5	0.9	-7.6	?	1.9	.	1.6	-0.5
ClpP mod	-0.4%	.	-3.6%	.	0.7%	4.3%&-28%	-1.2%	-4.2%	-14%	1.9%
TRPV1 potentiator	-1	0	6	5	-6	4	2	4	-21	-4
gsp ag	23%	16%[15.4 µM]	3%	3%[15.4 µM]	-22%	?	28%	-1%	-52%[inhibitor]	3%
TRPML1 inh	-16	16	-15	6	-17	10&-8	13	-14	.	2

#31 O=C(OCC(O)C(O)COC(=O)c1ccccc1)c1ccccc1 (centres undefined)
#32 CC1CCN(C(=O)c2ccc3ccccc3c2)CC1
#33 Cc1cc(C)nc(NS(=O)(=O)c2ccc(NC(=O)CN3C(=O)c4ccccc4C3=O)cc2)n1
#34 CC(=O)N1CC2(NC(=O)c3ccccc3N2)c2ccccc21 (centres undefined)
#35 CCOc1cccc(OCCCNCCCOC)c1
#36 c1ccc(N2CCN(C3CC4CCC3C4)CC2)cc1 (centres undefined)
#37 O=C(NCC(=O)N1CCN(S(=O)(=O)/C=C/c2ccccc2)CC1)c1ccccc1F
#38 Cc1ccc(-n2nc3ccc(NC(=O)c4ccc5c(c4)OCO5)cc3n2)cc1
#39 O=[N+]([O-])c1ccc(S(=O)(=O)NN=Cc2ccc3c(c2)OCO3)cc1
#40 CCCc1nnc(SCC(=O)Nc2ccc(NC(C)=O)cc2)n1-n1cccc1

screen / no.	31	32	33	34	35	36	37	38	39	40
gsp antagonist	-2%	-5%	.	7%	-1%	6%	-8%	2%	3%	11%
Sfp inh	13%	11%	19%	7%	-8%	-1%	18%	3%	.	.
Menin-MLL FL inh	-1.4	1.3	-1.4	0.1	3.7	1.1	2.8	3.1	.	.
ClpP mod	-1.0%	-1.5%	.	5.0%	0.8%	-1.2%	.	14µM*	.	?
TRPV1 potentiator	-13	-14	2	5	?	4	-1	2	.	1
gsp ag	4%	-22%	.	?	?	-2%	20%[15.4 µM]	-31%[inhibitor]	28%	0%
TRPML1 inh	25	14	.	-2	-6	-3	-11	-7	45	-8

In another format: results already given
#	Molecule	gsp antagonist	Sfp inh	Menin-MLL FL inh	ClpP mod	TRPV1 potentiator	gsp ag	TRPML1 inh
34	CC(=O)N1CC2(NC(=O)c3ccccc3N2)c2ccccc21 (centres undefined)	7%	7%	0.1	5.0%	5	?	-2
35	CCOc1cccc(OCCCNCCCOC)c1	-1%	-8%	3.7	0.8%	?	?	-6
36	c1ccc(N2CCN(C3CC4CCC3C4)CC2)cc1 (centres undefined)	6%	-1%	1.1	-1.2%	4	-2%	-3
37	O=C(NCC(=O)N1CCN(S(=O)(=O)/C=C/c2ccccc2)CC1)c1ccccc1F	-8%	18%	2.8	.	-1	20%[15.4 µM]	-11
38	Cc1ccc(-n2nc3ccc(NC(=O)c4ccc5c(c4)OCO5)cc3n2)cc1	2%	3%	3.1	14µM*	2	-31%[inhibitor]	-7
39	O=[N+]([O-])c1ccc(S(=O)(=O)NN=Cc2ccc3c(c2)OCO3)cc1	3%	.	.	.	.	28%	45
40	CCCc1nnc(SCC(=O)Nc2ccc(NC(C)=O)cc2)n1-n1cccc1	11%	.	.	?	1	0%	-8

Going on with the list.
#41 N/C(=N\OC(=O)c1ccc(Cl)cc1)c1cccnc1
#42 Cc1ccc(NC(=O)COC(=O)C2(CC(=O)NC(C)(C)C)CCCC2)cc1C
#43 CCc1ccc(NC(=O)C2CCN(S(=O)(=O)c3ccc4c(c3)NC(=O)C(C)S4)CC2)cc1 (centres undefined)
#44 Cc1ccc2c(c1)C(C)CC(C)(C)N2C(=O)CN1CCN(C)CC1 (centres undefined)
#45 COc1cc2c(C(=O)N3CCN(c4cccc(Cl)c4)CC3)cn(C)c(=O)c2cc1OC
#46 CCOC(=O)C1(Cc2cccc(Cl)c2)CCCN(C(=O)c2cc(C)on2)C1 (centres undefined)
#47 CCO[C@@H]1OC(C(=O)N2CCN(Cc3ccccc3)CC2)=C[C@H](c2coc3ccccc3c2=O)[C@H]1CCCO
#48 COc1ccc(/C=N/NS(=O)(=O)c2ccccc2)cc1OC
#49 Cc1ccc(NC(=O)COC(=O)CCc2ccccc2)c(Cl)c1
#50 COc1ccc2[nH]c(=O)c(CN(C(=O)c3cccnc3)c3ccc(C)cc3C)cc2c1

screen / no.	41	42	43	44	45	46	47	48	49	50
gsp antagonist	4%	-17%	-13%	0%	4%	-8%	-3%	-10%	6%	0%
Sfp inh	14%	.	26%	56µM*	9%	6%	-9%	10%	-4%	23%
Menin-MLL FL inh	1.3	.	.	0.9	2.2	.	-1.4	5.4	-16	2.6
ClpP mod	-17%	-3.3%	-1.4%	1.2%	-0.8%&-25%	-3.0%	-1.2%	1.5%	.	.
TRPV1 potentiator	-17	.	-1	-2	7	-8	-13	3	-18	-11
gsp ag	17%[15.4 µM]	-5%[15.4 µM]	8%	?	-1%	-1%	-18%	-15%	2%[15.4 µM]	8%[15.4 µM]
TRPML1 inh	-3	-13	1	-15	4&3	-7	-2	11	13	6
